# Compound activity deposited in PubChem BioAssay by National Center for Advancing Translational Sciences (NCATS).
# TRPML1 inh: qHTS for Inhibitors of the Human Mucolipin Transient Receptor Potential 1 (TRPML1); 390,000 tested, 0.02% active; AID 624415, 2012; Mucolipin-1 (Homo sapiens), Q9GZU1; TRPML1-inducible cells, Ca2+ dye fluorescence, FDSS; active compounds read low; inhibition of EC80 agonist-evoked calcium signal; activity change, negative = inhibition, % (test concentration not listed); in the data active means activity change below about -50%; inconclusive means about -30% to -50%; inactive means above about -30%;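 further: stimulus is agonist 54-4 at its EC80 concentration; on the % scale 0 is the no-effect control and ±100 the full control effect; compound concentration not given in the record; the text of the record puts the active cut at -80%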
# Target sequence (Q9GZU1 whole entry, looked up): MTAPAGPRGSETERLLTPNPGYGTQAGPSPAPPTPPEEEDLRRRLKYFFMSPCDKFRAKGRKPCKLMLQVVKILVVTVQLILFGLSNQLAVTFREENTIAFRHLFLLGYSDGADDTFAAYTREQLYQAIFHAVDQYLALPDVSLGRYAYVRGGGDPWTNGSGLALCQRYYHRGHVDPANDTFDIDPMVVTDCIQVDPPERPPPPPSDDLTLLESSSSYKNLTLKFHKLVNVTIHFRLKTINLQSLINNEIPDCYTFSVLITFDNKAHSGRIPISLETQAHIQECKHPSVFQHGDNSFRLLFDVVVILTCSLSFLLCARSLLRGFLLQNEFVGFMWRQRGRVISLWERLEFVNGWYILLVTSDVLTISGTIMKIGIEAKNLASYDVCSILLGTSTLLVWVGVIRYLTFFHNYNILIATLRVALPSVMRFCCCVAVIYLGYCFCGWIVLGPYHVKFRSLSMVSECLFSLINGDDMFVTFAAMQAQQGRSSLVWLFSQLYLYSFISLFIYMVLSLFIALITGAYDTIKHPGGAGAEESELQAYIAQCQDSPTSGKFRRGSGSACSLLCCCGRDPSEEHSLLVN
#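 TRPML1-DL cells, Tet-induced overnight (~16 h, 37 °C) at 1,500 cells/well, were loaded with Ca8 no-wash dye plus quencher for 45-90 min at room temperature. Compounds were pinned during FDSS kinetic reading; agonist 54-4 at EC80 (4 uM final) then added.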
# CtBP-E1A inh: qHTS Assay for Inhibitors of the CtBP/E1A Interaction; CtBP / adenovirus E1A interaction (AlphaScreen); AlphaScreen GST-E1A/His-CtBP binding, 1536-well; active compounds read low; control for the full effect not named in the record; activity change, % (no concentration beside the values); 340,000 tested, 0.49% active; in the data active means activity change below about -65%; inconclusive means about -30% to -65%; inactive means above about -30%; further: on the % scale 0 is the no-effect control and ±100 the full control effect
#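 AlphaScreen with 125 nM GST-E1A and 125 nM His-CtBP (5X stocks) in Tris pH 8.0, 300 mM NaCl, BSA, Tween 20, TCEP. Compounds preincubated 2 h at 37 deg C, then glutathione donor/nickel acceptor beads added for 1 h at 37 deg C in dark.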
# PINK1 expr mod: A Quantitative High throughput Screen to Identify Chemical Modulators of PINK1 Expression; PINK1 immunofluorescence, high-content cytometry, 24 h; Potency, µM (series often up to 76.6 µM), inactives show top-dose activation (PINK1 increase), hits mostly activators; 410,000 tested, 0.2% active; AID 624263, 2012; active = well fitted activation curve with a large enough effect; inconclusive = small, poorly fitted or top-dose-only effect; inactive = flat fitted curve, though single readings scatter; cell line not stated here;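 further: potency means the concentration at half of the fitted maximal effect; % of control where 0% means no effect; nearly all actives have a fitted effect of over 65% in size; a mitochondrial uncoupler was the plate control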
#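 Readout is PINK1 immunofluorescence, quantified alongside mitochondrial, cell and nuclear markers by laser-scanning microplate cytometry. Cells from a stable line were exposed to compound titrations (5 concentrations) for 24 hours, with CCCP controls.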
# D2 ag: Beta-Arrestin HTS for Positive Allosteric Modulators of the Human D2 Dopamine Receptor: Agonists | D(2) dopamine receptor (Homo sapiens), P14416 | DiscoveRx PathHunter D2 beta-arrestin, luminescence, 90 min; 100% = 57 uM dopamine signal | activation, % (test concentration not listed) | 360,000 tested, 0.084% active | AID 624465, 2012; in the data active = activation above about 40%; inconclusive = about 15% to 40%; inactive = below about 15%; further: compound concentration not given in the record; the text of the record calls up to 30% inactive
# Target sequence (P14416 whole entry, looked up): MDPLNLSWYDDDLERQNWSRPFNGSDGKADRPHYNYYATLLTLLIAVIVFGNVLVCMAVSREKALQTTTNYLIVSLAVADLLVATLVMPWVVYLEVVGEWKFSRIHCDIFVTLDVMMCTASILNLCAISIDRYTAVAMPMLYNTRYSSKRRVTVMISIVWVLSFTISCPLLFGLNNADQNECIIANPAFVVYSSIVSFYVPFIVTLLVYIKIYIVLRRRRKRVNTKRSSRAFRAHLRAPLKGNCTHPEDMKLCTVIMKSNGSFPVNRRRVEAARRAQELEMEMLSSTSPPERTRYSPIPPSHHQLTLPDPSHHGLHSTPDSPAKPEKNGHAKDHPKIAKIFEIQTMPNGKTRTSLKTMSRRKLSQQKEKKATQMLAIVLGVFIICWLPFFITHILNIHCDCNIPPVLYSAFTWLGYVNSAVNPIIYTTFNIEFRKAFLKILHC
#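 Agonist mode: compounds alone added to overnight-plated D2 PathHunter cells for 90 min at 37 C, with 57 uM final dopamine (EC100) defining full response. Beta-arrestin recruitment detected by chemiluminescent reagent, read after 1 h at ambient temperature.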
# Six1-Eya2 blk: qHTS Assay for Inhibitors of the Six1/Eya2 Interaction | AlphaScreen GST-Six1/His-Eya2 binding, biochemical; active compounds read low; control for the full effect not named in the record | 360,000 tested, 0.56% active | activity change, % (concentration not given with the values); in the data active = activity change below about -65%; inconclusive = about -30% to -65%; inactive = above about -30%; further: on the % scale 0 is the no-effect control and ±100 the full control effect
#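 GST-Six1 + His-Eya2 (5X stock: 250/500 nM); Tris pH 8.0, 300 mM NaCl, 0.05% BSA, 0.02% Tween 20; GSH donor/Ni acceptor beads; 1 h 37 °C dark; AlphaScreen readout.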
# TRPML1 ag: qHTS for Agonists of the Human Mucolipin Transient Receptor Potential 1 (TRPML1) | Mucolipin-1 (Homo sapiens), Q9GZU1 | TRPML1-expressing cells, Ca2+ dye fluorescence, FDSS; host cell line not named in the record; reference of the full effect not given here | activation, % (no concentration beside the values) | 410,000 tested, 0.12% active; in the data active = activation above about 50%; inconclusive = about 30% to 50%; inactive = below about 30%; further: 0% is about no effect; the text of the record puts the active cut at 80%
#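 Tet-induced TRPML1-DL cells, 1,500 per well, cultured overnight, were loaded with a no-wash Ca2+ dye for 45–90 min. Calcium fluorescence was recorded on the FDSS for 110 s after compound addition, before the EC80 agonist (4 uM 54-4) was added.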
# Active calls of the source: *; ? = inconclusive; . = no result given; [ ] = remark or other dose.
SMILES,TRPML1 inh,CtBP-E1A inh,PINK1 expr mod,D2 ag,Six1-Eya2 blk,TRPML1 ag
CCN(CC)S(=O)(=O)c1ccc(OC)c(NC(=O)c2ccc(OC)c([N+](=O)[O-])c2)c1,50,-5,-1.5%,0.6,-5,0.6
O=c1[nH]c2ccsc2c(=O)n1-c1ccc(F)c(Cl)c1,6,5,11%[38.3 µM],-2.6,0,-1.0
CCOC(=O)CN1C(=O)C(=O)N(Cc2c(Cl)cccc2Cl)C1=O,-18,6,2.6%,-0.7,9,0.0
O=C(Nc1ccccc1N1CCCC1)c1cccc(S(=O)(=O)N2CCOCC2)c1,2,1,0.2%,-2.8,-10,0.4
Cn1c2ccc(F)cc2c2ncn(Cc3ccccn3)c(=O)c21,7,-14,0.0%,-0.3,-23,0.2
Cc1cc(S(=O)(=O)Nc2ccc(F)cc2)c(C)s1,41,5,16%[38.3 µM],-1.0,1,0.9
CN(C)c1ccc(C(O)Cc2nc3ccccc3n2C)cc1 (centres undefined),-3,-2,1.1%,-4.0,-4,-0.1
CCC(CC)C(=O)NCCc1cc2cc(C)c(C)cc2[nH]c1=O,-8,4,1.7%,-6.4,0,-0.2
Cc1cc(C)c(C2C(C#N)=C(N)Oc3n[nH]c(C)c32)cc1CN1CCCC1 (centres undefined),-16,-15,5.1%[38.3 µM],-2.6,-10,0.1
COc1ccc(/C=N/OCc2nc3c4c(ncn3n2)Oc2ccc3ccccc3c2C4c2ccccc2)cc1 (centres undefined),13,1,-1.2%,-3.0,0,-0.5
COCCn1cc(C(=O)NCCCN2CCC(C)CC2)c2c3ccccc3n(C)c2c1=O,6,0,6.8%[38.3 µM],-3.0,-3,0.0
CCOC(=O)N1CCN(C(=O)c2ccc(Cl)c(S(=O)(=O)N3CCCC3)c2)CC1,13,-2,-0.5%,-0.2,13,0.3
CCCC/C(O)=C1\C(=O)CC(C)(C)CC1=Nc1ccc(OC)cc1,-4,7,0.4%,-1.4,2,-0.5
O=C(Nc1nc2n(n1)C(c1ccccc1)C=C(c1ccccc1)N2)c1ccco1 (centres undefined),19,-19,-0.2%,-0.6,0,0.4
O=C(CN1CCN(S(=O)(=O)c2ccc(Cl)cc2)CC1)Nc1ccc(F)cc1F,1,0,-1.2%,-1.5,-5,-0.9
COc1cccc(-c2nn(C)c3sc(C(=O)NCc4ccccn4)cc23)c1,25,?,-0.6%,-3.6,?,-0.5
Cn1ccnc1C(=O)c1cccc(Br)c1,-13,9,-0.2%,0.9,-5,0.0
CCCOC1(NC(=O)c2ccccc2)C(C)=CC(=O)C=C1C,-3,2,0.2%,-2.1,-1,-0.7
CCN(CC)C(=O)N1CCC(NC(=O)c2ccc(C(C)(C)C)cc2)CC1,4,6,-4.5%,-2.3,4,-0.3
CCOc1ccccc1NC(=O)COC(=O)COc1cccc2c1OC(C)(C)C2,-8,5,-0.1%,-2.0,0,0.9
COC1=Nc2ccccc2/C=C\c2ccccc21,-2,3,3.6%,1.6,14,1.6
COc1ccc(N2CC(NC(=O)C3CC3)CC2=O)cc1OC (centres undefined),-6,.,1.5%,.,.,-0.2
O=C1NC[C@H](CC2CCCCC2)N(CC2CCCCC2)C1=O,0,.,-0.1%,-0.3,1,3.5
Cc1cccc(NC(=O)COc2ccc3oc4c(c3c2)CCCC4)n1,-7,4,7.5%[38.3 µM],-2.6,-3,1.0
CCOC(=O)c1ccc(NC(=O)c2cnn3c(=O)c4c(n(CC)c23)CCN(Cc2ccc(OC)cc2)C4)cc1,24,.,2.6%,.,.,3.3
O=C(CCl)Nc1cn(-c2ccccc2)nc1-c1ccc(F)cc1,-9,5,-0.8%,7.0,8,-1.3
COc1cccc(CNC(=O)CCS(=O)(=O)c2ccccc2Cl)c1,-13,.,3.5%,-0.4,-1,-1.3
c1csc(-c2nn3c(Cn4cnc5ccccc54)nnc3s2)c1,-10,-2,.,0.5,3,0.1
Cc1ccc(S(=O)(=O)NC2CC(C)(C)NC(C)(C)C2)c(C)c1C,-14,6,-1.1%,1.4,-4,0.8
Cc1cc(C)n(CC(=O)NNC(=O)CCCOc2ccc(Cl)c(C)c2)n1,-1,6,3.5%,0.8,8,0.3
CCCCC12CN3CC(C)(CN(C1)C3c1cc(Br)ccc1O)C2=O (centres undefined),12,.,0.6%,.,.,-1.3
O=C(CCN1CCCCC1)NCC1OCCc2ccccc21 (centres undefined),25,2,21%[38.3 µM],-3.1,3,1.4
Cc1ccc2ccccc2c1Cn1c(-n2ccnc2)nc2c1c(=O)n(C)c(=O)n2C,-8,4,-0.7%,2.5,3,0.1
CCc1nc2sc3c(N4CCC(C)CC4)ncnc3c2c2c1CCCC2,14,.,8.6%,.,.,-0.6
C=C(C)C(=O)Oc1ccc(N2C(=O)CCC2=O)cc1,51,-14,2.1%,-4.2,-10,-0.7
O=C(Cc1cccs1)N1CCN(S(=O)(=O)c2ccc(F)cc2)CC1,6,4,1.7%,7.5,9,1.8
O=C(CSc1cc([N+](=O)[O-])cc(S(=O)(=O)Cc2ccccc2)c1)NC1CC1,12,6,0.8%,8.1,3,-0.2
COc1ccc(OCCCC(=O)N(C)CC(=O)Nc2ccccc2Cl)cc1,17,5,-3.0%,-5.4,-4,1.0
Cc1ccc(C(=O)/C=C\NCc2ccccc2)cc1,20,-1,-1.0%,-1.5,-8,2.0
CC(C)(C)OC(=O)N(Cc1ccccc1)Cc1ccc(OCc2cccc(NC(=O)C3CC3)c2)cc1,2,-4,-0.4%,2.7,8,4.1
O=C1CCC(=O)N1CN(C(=O)c1ccco1)c1ccccc1,-9,2,0.1%,-2.4,-1,-0.3
CCN(CC)S(=O)(=O)c1ccc(C(=O)OCn2nnc3ccccc3c2=O)cc1,-5,10,-1.2%,3.0,-2,2.1
COc1ccc(N2C(=O)CC2(/C=C/c2ccccc2OC)C(=O)NC2CCCC2)cc1 (centres undefined),-5,-5,0.5%,-3.0,-11,0.7
O=C(Nc1nccs1)c1ccc(-c2cccc([N+](=O)[O-])c2)o1,21,12,3.3%,2.6,-23,0.5
Cc1ccc(C)c(Cn2nnc3c(=O)[nH]c(C4CCCN(C(=O)CC(C)C)C4)nc32)c1 (centres undefined),7,-7,-1.5%[38.3 µM],-3.5,0,0.5
CS(=O)(=O)N(CC(=O)NCc1ccco1)c1cc(C(F)(F)F)ccc1Cl,9,6,.,-2.1,-5,-0.7
CCc1cc(C(=O)N2CCCC(CCC(=O)NCc3cccc(OC)c3)C2)no1 (centres undefined),-23,2,-3.0%,8.2,7,2.8
Cc1c(NC(=O)c2ccc(Cl)cc2)cc(C(C)C)c(O)c1S(=O)(=O)c1ccc(Cl)cc1,9,.,1.8%,.,.,-0.4

# Given with two lines to a compound: 18 of the compounds above
# The line under a structure holds: TRPML1 inh | CtBP-E1A inh | PINK1 expr mod | D2 ag | Six1-Eya2 blk | TRPML1 ag
- CN(C)c1ccc(C(O)Cc2nc3ccccc3n2C)cc1 (centres undefined)
    -3 | -2 | 1.1% | -4.0 | -4 | -0.1
- CCC(CC)C(=O)NCCc1cc2cc(C)c(C)cc2[nH]c1=O
    -8 | 4 | 1.7% | -6.4 | 0 | -0.2
- Cc1cc(C)c(C2C(C#N)=C(N)Oc3n[nH]c(C)c32)cc1CN1CCCC1 (centres undefined)
    -16 | -15 | 5.1%[38.3 µM] | -2.6 | -10 | 0.1
- COc1ccc(/C=N/OCc2nc3c4c(ncn3n2)Oc2ccc3ccccc3c2C4c2ccccc2)cc1 (centres undefined)
    13 | 1 | -1.2% | -3.0 | 0 | -0.5
- COCCn1cc(C(=O)NCCCN2CCC(C)CC2)c2c3ccccc3n(C)c2c1=O
    6 | 0 | 6.8%[38.3 µM] | -3.0 | -3 | 0.0
- CCOC(=O)N1CCN(C(=O)c2ccc(Cl)c(S(=O)(=O)N3CCCC3)c2)CC1
    13 | -2 | -0.5% | -0.2 | 13 | 0.3
- CCCC/C(O)=C1\C(=O)CC(C)(C)CC1=Nc1ccc(OC)cc1
    -4 | 7 | 0.4% | -1.4 | 2 | -0.5
- O=C(Nc1nc2n(n1)C(c1ccccc1)C=C(c1ccccc1)N2)c1ccco1 (centres undefined)
    19 | -19 | -0.2% | -0.6 | 0 | 0.4
- O=C(CN1CCN(S(=O)(=O)c2ccc(Cl)cc2)CC1)Nc1ccc(F)cc1F
    1 | 0 | -1.2% | -1.5 | -5 | -0.9
- COc1cccc(-c2nn(C)c3sc(C(=O)NCc4ccccn4)cc23)c1
    25 | ? | -0.6% | -3.6 | ? | -0.5
- Cn1ccnc1C(=O)c1cccc(Br)c1
    -13 | 9 | -0.2% | 0.9 | -5 | 0.0
- CCCOC1(NC(=O)c2ccccc2)C(C)=CC(=O)C=C1C
    -3 | 2 | 0.2% | -2.1 | -1 | -0.7
- CCN(CC)C(=O)N1CCC(NC(=O)c2ccc(C(C)(C)C)cc2)CC1
    4 | 6 | -4.5% | -2.3 | 4 | -0.3
- CCOc1ccccc1NC(=O)COC(=O)COc1cccc2c1OC(C)(C)C2
    -8 | 5 | -0.1% | -2.0 | 0 | 0.9
- COC1=Nc2ccccc2/C=C\c2ccccc21
    -2 | 3 | 3.6% | 1.6 | 14 | 1.6
- COc1ccc(N2CC(NC(=O)C3CC3)CC2=O)cc1OC (centres undefined)
    -6 | . | 1.5% | . | . | -0.2
- O=C1NC[C@H](CC2CCCCC2)N(CC2CCCCC2)C1=O
    0 | . | -0.1% | -0.3 | 1 | 3.5
- Cc1cccc(NC(=O)COc2ccc3oc4c(c3c2)CCCC4)n1
    -7 | 4 | 7.5%[38.3 µM] | -2.6 | -3 | 1.0

# (next part)
SMILES,TRPML1 inh,CtBP-E1A inh,PINK1 expr mod,D2 ag,Six1-Eya2 blk,TRPML1 ag
COc1ccc(NC(=O)CSc2nccn2Cc2ccccc2)c(OC)c1,-6,0,-0.6%,2.9,12,0.1
CCOc1ccc(/C=C/c2nc(C#N)c(N(C)C)o2)cc1,25,.,5.7%,.,.,1.3
COc1ccc(OC)c(NC(=O)CCN2CCN(Cc3ccccc3)CC2)c1,-7,4,3.4%[38.3 µM],2.7,-2,2.4
COc1cccc(Oc2ccc(N)cc2)c1,-6,-14,4.4%,-1.1,-15,0.3
